HNF4A DNA FP: change in binding of human HNF4A to DNA, primary screen, biochemical, fluorescence polarization, FITC-DNA; 360,000 compounds, 0.3% hits; activity change, % at 10 µM; 1 h; in the data active = activity change above about 30%, passing the limit was not always enough;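 also: controls were the assay level and a saturating level of protein; the project sought stronger binding though the title names inhibitors; some compounds called inactive have numbers as strong as hits; positive values seem to mean higher polarization but the record does not say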
Target sequence (P41235 whole entry, looked up): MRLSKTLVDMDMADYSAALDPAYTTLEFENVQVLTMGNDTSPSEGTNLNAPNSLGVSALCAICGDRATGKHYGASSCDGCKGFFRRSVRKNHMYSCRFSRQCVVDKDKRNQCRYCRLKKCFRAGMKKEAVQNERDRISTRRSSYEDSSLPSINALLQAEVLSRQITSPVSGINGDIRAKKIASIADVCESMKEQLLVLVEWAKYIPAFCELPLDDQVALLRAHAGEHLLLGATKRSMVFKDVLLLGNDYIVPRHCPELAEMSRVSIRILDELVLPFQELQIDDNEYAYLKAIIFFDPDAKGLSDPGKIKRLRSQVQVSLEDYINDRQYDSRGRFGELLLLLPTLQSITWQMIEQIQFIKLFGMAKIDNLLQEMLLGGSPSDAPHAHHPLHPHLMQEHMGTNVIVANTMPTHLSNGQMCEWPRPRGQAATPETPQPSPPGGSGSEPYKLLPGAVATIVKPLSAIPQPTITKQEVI
FGF22 binding: binders of human FGF22 protein, primary screen, FGF22 synaptogenesis inhibitor project, biophysical, thermal shift, single point | Fibroblast growth factor 22 (Homo sapiens), Q9HCT0 | recombinant FGF22 thermal shift, SYPRO orange fluorescence; percent of sucrose octasulfate shift, DMSO zero | calls only at 9.99 µM | 340,000 compounds, 1.5% hits | AID 651658, 2012;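 active = melting point raised past a set limit in the mean and every replicate; three in four hits are not shown here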
Target sequence (Q9HCT0 whole entry, looked up): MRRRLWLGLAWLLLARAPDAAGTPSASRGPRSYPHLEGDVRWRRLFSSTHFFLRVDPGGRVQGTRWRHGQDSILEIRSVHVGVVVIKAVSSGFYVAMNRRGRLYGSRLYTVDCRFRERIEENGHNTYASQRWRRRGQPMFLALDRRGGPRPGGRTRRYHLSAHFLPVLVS
* = called active by the depositor; i = inactive; + = active, no number; ! = not confirmed by another sample. These rows are one share of the data (hit frequency here may not be typical).

SMILES	FGF22 binding	HNF4A DNA FP
Cc1nc(SCC(=O)N2CCCC2=O)c2c(C)c(C)sc2n1	i	5.1
CN(c1ccccc1)S(=O)(=O)c1cccc(NC(=O)CCNC(=O)c2ccco2)c1	i	1.0
CC(C)(C)n1c(O)c2n(c1=O)Cc1ccccc1N=C2c1ccccc1	i	-2.8
Cc1cccc(C)c1NC(=O)C1(C)CSCC(=O)N1CC(C)C (stereo unspecified)	i	2.0
CC1(C(=O)NS(=O)(=O)C2CC2)CCCN(C(=O)c2ccc3ccccc3c2)C1 (stereo unspecified)	i	3.0
C[C@@H]1CN([C@H](C)CO)C(=O)c2cc(Br)cnc2O[C@@H]1CN(C)Cc1ccc(-c2ccccc2)cc1	i	-3.5
COc1ccc(CCNC(=O)CCCn2c(=S)[nH]c3cc4c(cc3c2=O)OCO4)cc1OC	i	3.5
O=C(c1ccccc1)c1ccc(C(=O)N2CCN(c3ccccc3O)CC2)cc1	i	-5.0
COC(=O)[C@@]1(Cc2ccc(F)cc2)[C@H]2c3cc(C(=O)N(C)C)n(Cc4ccc(S(C)(=O)=O)cc4)c3C[C@H]2CN1C(=O)c1ccccc1	i	5.5
OCC[C@@H]1C[C@H](O)[C@@H](O)[C@@]2(OCCCc3cc(Cl)ccc32)O1	i	-0.1
COC(=O)c1ccc2nc(-c3ccccc3)c(Cc3ccccc3OC)n2c1	i	6.3
O=C1NC(Cc2ccc(O)cc2)c2nc3ccc(Br)cc3c(=O)n2-c2cc3ccccc3cc21 (stereo unspecified)	i	3.0
O=S(CC(O)(c1ccccc1)c1ccccc1)CC(O)(c1ccccc1)c1ccccc1	i	-1.9
O=[N+]([O-])c1nccn1CC(O)CO (stereo unspecified)	i	7.1
COc1ccc(C(CC(=O)c2ccc(C)cc2)Sc2ccccc2N)cc1 (stereo unspecified)	i	3.4
CC(C)C[C@H]1CN(CCCC[C@H]2CNC(=O)C(=O)N2CCc2ccc(O)cc2)C(=O)C(=O)N1CCc1ccc(O)cc1	i	-2.1
O=C1Nc2ccccc2Cc2ccccc21	i	4.4
C[C@H](CO)N1C[C@H](C)[C@H](CN(C)S(=O)(=O)c2cccc(F)c2)OCc2ccccc2-c2c(n(C)c3ccccc23)C1=O	i	0.1
CC(C)C1C(=O)N(Cc2cn(CCC3OCCO3)nn2)CCS(=O)(=O)N1Cc1ccc(-c2ccc(F)cc2)cc1 (stereo unspecified)	i	-1.8
CCN(CC)C(=O)c1ccc2nc([C@@H]3O[C@H](CO)[C@H](O)[C@H](O)[C@H]3O)[nH]c2c1	i	2.5
CC1(C(=O)NS(=O)(=O)c2ccc(F)cc2F)CCN1C(=O)Cc1ccccc1 (stereo unspecified)	i	0.0
Nc1ncnc2c1ncn2[C@@H]1O[C@H](CNC(=O)[C@H](N)Cc2cccnc2)[C@@H](O)[C@H]1O	i	3.9
CC(=O)N1c2ccccc2Sc2ccc3ccccc3c21	i	-1.8
CNC(=O)C[C@H]1C(=O)N(C2CCCCC2)C[C@@H]1c1ccc(Br)cc1	i	-3.8
CCOC1=C2[C@H](c3ccc(CC)cc3)N(S(=O)(=O)c3ccc(C)cc3)C[C@H]2n2c(=O)n(-c3ccccc3)c(=O)n2C1	i	0.4

Continuation.
SMILES	FGF22 binding	HNF4A DNA FP
Cc1cnc(CN(C)C(=O)C2CCC(=O)N(CCc3ccc(Cl)cc3)C2)[nH]1 (stereo unspecified)	i	-2.2
CCCC(=O)N1CCC1(C)C(=O)Nc1cc(C)ccc1C (stereo unspecified)	i	1.2
COC(=O)c1ccccc1NN=Nc1ccccc1[N+](=O)[O-]	i	5.2
CC(C)[C@@H]1Cc2[nH]c(=O)[nH]c(=O)c2[C@H](c2ccc(F)cc2)O1	i	5.4
COc1cc(-c2cnc3c(NC=O)cc(-c4ccc(N5CCN(C)CC5)cc4)cn23)cc(OC)c1OC	i	12
Cc1cc(C)cc(C(O)c2ncc(-c3ccccc3C)[nH]2)c1 (stereo unspecified)	i	3.8
CC(=O)Nc1cccc(/C(C)=N/NC(=O)c2cccc(S(=O)(=O)N3CCCC3)c2)c1	i	-0.4
CC(C)NC(=O)C1(C#N)C=C1c1ccccc1 (stereo unspecified)	i	1.8
COc1ccc(C(c2nnnn2-c2c(C)cccc2C)N2CCN(C/C=C/c3ccccc3)CC2)cc1 (stereo unspecified)	i	5.0
O=C(NCC[C@H]1CC[C@@H](NC(=O)C2CCOCC2)[C@@H](CO)O1)Nc1ccc(Cl)cc1	+!	3.9
CC(=O)Nc1cccc(-c2ccnc3c2CC(C(=O)NCc2ccncc2)O3)c1 (stereo unspecified)	i	0.5
C[C@@H]1CN([C@H](C)CO)C(=O)CCCn2nncc2CO[C@@H]1CN(C)S(=O)(=O)c1ccc(-n2cccn2)cc1	i	0.8
COc1cccc(C(=O)c2ccncc2C(=O)O)c1OC	i	-6.3
COc1ccc(-c2nc3ccc(Cl)cn3c2Cc2ccccc2)cc1OC	i	9.9
CCCCCC(=O)N1C[C@H](n2cc(COC(=O)c3ccccc3)nn2)[C@@H](O)C[C@@H]1c1ccc(Cl)cc1	i	-5.8
CC(=O)C(=Cc1ccc(Cl)cc1)C(=O)c1ccccc1	i	-2.9
COc1ccc(N2CCN(CCCn3ccc(NC(=O)OCc4ccccc4)nc3=O)CC2)cc1	i	3.2
COc1cccc(CN(C)C(=O)c2ccc(S(=O)(=O)Nc3ccccc3C)cc2)c1OC	i	4.2
COc1ccc(Cl)cc1-c1cc(C(=O)Nc2ccc(C(C)(C)C)cc2)[nH]n1	i	0.4
c1ccc(OCCNc2ccn3nc(-c4ccccc4)cc3n2)cc1	i	-3.2
CC(=O)Nc1ccc(C=C(C#N)c2ccc(C)cc2)cc1	i	1.5
O=S1(=O)CC(N2CCN(CCO)CC2)CN1Cc1cn(Cc2ccc(C(F)(F)F)cc2)nn1 (stereo unspecified)	i	-3.4
COc1ccc(-c2cc3c(c4c2ccn4C)C2CCC3C2)cc1 (stereo unspecified)	i	0.8
Cc1cc2nc(-c3nnnn3-c3c(C)cccc3C)c(=O)[nH]c2cc1C	i	-2.4
O=C(C(=O)N1CCN(c2ccccc2)CC1)c1ccco1	i	-6.7

(further entries)
SMILES	FGF22 binding	HNF4A DNA FP
CN1CCN(c2ccc(CNC(=O)c3ccc(-c4ccc(F)c(F)c4)c4ccoc34)cc2)CC1	i	2.6
Cc1cccc(CN(Nc2ccccc2)c2ccccc2)n1	i	3.3
CC1(C)CC(=O)C=C(c2ccc(COC(=O)C3CC3)cc2)C1=O	i	-2.0
Cc1cccc(C)c1Cn1c(C)c(C(=O)NCc2cccc(Cl)c2)sc1=O	i	2.6
CNc1nc(NCCCN2CCCC2=O)c2sccc2n1	i	2.9
COCCCN1C(=O)C(CC(=O)NCc2ccco2)CC(C(=O)N(C(C)C)C(C)C)=C1C (stereo unspecified)	i	-1.1
Cc1cccc(C)c1NC(=O)C(c1ccccc1)N1CCC(Cc2ccccc2)CC1 (stereo unspecified)	i	1.0
O=C(Nc1ccc(Oc2ccccc2)cc1)c1csc([C@@H]2O[C@H](CO)[C@H](O)[C@H](O)[C@H]2O)n1	i	1.4
CN1OC[C@@H]2CN(S(=O)(=O)c3cccc4ccccc34)[C@H](c3ccc(N4CCCCC4)cc3)C[C@@H]21	i	5.8
C[C@H]1CN([C@@H](C)CO)C(=O)CCCn2cc(nn2)CO[C@@H]1CN(C)C(=O)Nc1ccc(-c2cccs2)cc1	i	-0.3
CCOC(=O)[C@]12CCCC=C1N(Cc1ccc3c(c1)OCO3)C(=O)[C@H](CC(=O)N1CCC(c3ccccc3)CC1)C2	i	6.3
COc1ccc(C(C)C)cc1-c1cccc2nncn12	i	-0.5
Cn1nnc(NC(=S)NC(=O)c2ccc3ccccc3c2)n1	i	0.6
CC1=NN(C(N)=S)C(=O)C1N=Nc1ccccc1[N+](=O)[O-] (stereo unspecified)	i	1.2
COc1ccccc1C(=O)NNC(=O)CN(C)S(=O)(=O)c1ccc(Cl)cc1	i	0.7
CCOc1cc2c(c3c1C(c1ccccc1)N(S(=O)(=O)c1ccc(C)cc1)C3)C(=O)C=CC2=O (stereo unspecified)	i	-3.0
Cn1c(NCc2ccccc2F)nc2cc(-c3cccc(C(F)(F)F)c3)sc2c1=O	i	0.3
O=C1OCCC1=CN1CCCCC1	i	-1.5
C[C@H](CO)N1C[C@H](C)[C@@H](CN(C)C(=O)Nc2ccccc2F)Oc2ncc(Br)cc2C1=O	i	-2.9
FCc1nc2nc(Cl)c(Cl)nc2[nH]1	i	-5.9
COc1ccc(Cl)cc1CC1(C)C(=O)Nc2ccc(S(=O)(=O)NC3CCCCC3)cc21 (stereo unspecified)	i	-0.8
COc1cccc(-c2cnc(C(O)c3ccc(C)cc3)[nH]2)c1 (stereo unspecified)	i	-0.3
CC[C@H](C)/C=C(C)/C=C/c1cc2c(cn1)C(=O)[C@@](C)(OC(C)=O)C(O)=C2Cl	i	-9.4
CCCCNC(=O)C1(C)CCCCN1Cc1ccccc1-c1ccccc1 (stereo unspecified)	i	1.6
CCN(CC)CCCNC(=O)CNC(=O)c1nn(-c2ccc(OC)cc2OC)c(=O)c2ccccc12	i	2.0

Later entries.
SMILES	FGF22 binding	HNF4A DNA FP
Cc1nn(C)c(C)c1/C=C(\C#N)S(=O)(=O)c1ccc(F)cc1	i	1.3
OC[C@@H]1CN(Cc2ccc(F)cc2)C[C@H](n2cnc3c(NC4CCCC4)ncnc32)O1	i	-1.3
CN(C)c1ccc(/C=C2\c3ccccc3C(=O)N2c2ccccc2)cn1	i	24
Cc1ccc(S(=O)(=O)N2[C@H](CC(=O)c3ccc(F)cc3)OC[C@@H]2C(C)C)cc1	i	2.6
O=C(Nc1ccccc1Cl)c1cc(C2CCCN(C(=O)C3CCCCC3)C2)on1 (stereo unspecified)	i	4.0
CC(C)(CO)CNc1ccn2nccc2n1	i	0.4
COc1ccc(-c2nc3c4ccccc4ccn3c2Cc2ccccc2)cc1OC	i	2.7
CC(=O)N1CCN(Cc2cc(=O)oc3cc(C)ccc23)CC1	i	0.4
CSCCC(c1nc2ccccc2[nH]1)n1c(/C=C/c2ccc(F)c(F)c2)nc2ccccc21 (stereo unspecified)	i	1.6
Cc1ncc([N+](=O)[O-])n1CC(=O)Nc1ccccc1Cl	i	-5.2
COCCNC(=O)C1(C)CCN(C(=O)c2cc(-c3ccccc3)cs2)C1 (stereo unspecified)	i	-0.9
O=c1[nH]c2cc(O)ccc2c2ccccc12	i	0.8
Cn1c(=O)c2cc(NC(=O)Cc3ccccc3F)ccc2n1-c1ccc(C(C)(C)C)cc1	i	2.1
Cc1ccc2c(c1)C=CC(C#N)N2C(=O)Oc1ccccc1 (stereo unspecified)	i	-3.5
CN1CCN(c2ccc(-c3cccc4nccn34)cn2)CC1	i	3.0
COC(=O)[C@@]1(C(C)C)N=C(c2cc(OC)c(OC)c(OC)c2)[C@]2(O1)C(=O)Nc1ccc(F)cc12	i	0.9
C=CCCC(=O)N1C[C@H]2CCN(C)[C@H]2C[C@H]1c1ccc(Br)cc1	i	3.1
O=C(CSc1nnc2ccc(-c3ccccn3)nn12)Nc1ccc(F)cc1	i	-3.8
O=C1Nc2ccccc2N=C(c2ccc3c(c2)OCO3)C1N(C(=O)c1ccc2ccccc2c1)C1CC1 (stereo unspecified)	i	1.1
CCCCCNC(=O)C(c1cc2ccccc2o1)n1c(=O)c(-c2cc3ccccc3[nH]2)nc2ccccc21 (stereo unspecified)	i	0.6
O=C(Nc1ccc(C(=O)N2CCOCC2)cc1)c1ccccc1Cl	i	1.4
COc1cccc(C(NC(=O)C2CCN(CCCOc3ccccc3)CC2)c2ccccn2)c1 (stereo unspecified)	i	0.4
CCCCc1ccc(S(=O)(=O)NC(=O)C2(C)CCN2C(=O)c2ccccc2)cc1 (stereo unspecified)	i	3.0
COc1ccccc1C(=O)NC(=S)Nc1ccc(N2CCOCC2)cc1	i	2.2
COc1ccc(-c2ccc(C(=O)Nc3cccc(C(C)=O)c3)c3occc23)c(C)c1	i	1.9

Remaining list, next part
SMILES	FGF22 binding	HNF4A DNA FP
COC(=O)C[C@@H]1C[C@@H]2c3cc(NS(=O)(=O)c4ccc(F)cc4)ccc3O[C@@H]2[C@H](CO)O1	i	-2.1
CN(C)c1ccc(-c2csc(C(C)(O)c3cccc(F)c3)n2)cc1 (stereo unspecified)	i	0.0
COC(=O)[C@]12CCCCC=C1N(Cc1ccc(Cl)cc1Cl)C(=O)[C@H](CC(=O)NCc1ccc(C)o1)C2	i	-6.1
O=C(CC1CC1)N[C@@H]1CC[C@@H](CCNS(=O)(=O)c2ccc(F)cc2)O[C@@H]1CO	i	-5.4

Screens: PubChem, several laboratories
